TRPV1 PAM – enhances activation of the human vanilloid receptor TRPV1. Q8NER1. TRPV1-expressing cells, Fluo-8 calcium influx, capsaicin EC20 potentiation; host cell line not named in the record; control for the full effect not named in the record. AID 540277. potentiation, % at 8.33 µM. 0.02% of 320,000 active; active means potentiation above 80%; inconclusive means 30% to 80%; inactive means below 30%; further: 0% is about no effect
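Cells expressing TRPV1 were dye-loaded with Fluo-8 and read kinetically: 10 s baseline, 3 min after compound (agonist portion), then 2 min after EC20 capsaicin (allosteric enhancer portion). Calcium-bound dye fluorescence at 480/520 nm.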
Menin MLL FP FL – inhibitors of human menin-MLL interaction, wild-type MLL peptide | 290,000 tested, under 10 active | FP activity change, % at 61.4 µM | Fluorescence polarization, fluorescein-MLL peptide displacement from menin; inconclusive = falling polarisation curve, or a change in total fluorescence; inactive = total fluorescence flat and polarisation flat or rising; no compound was filed as active; the % refers to the polarisation; negative = inhibition;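 further: % of control where 0% means no effect; inhibitors lower the polarisation; unlabelled MLL peptide was the positive control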
D2 PAM – human D2 receptor positive allosteric modulation | P14416 | DiscoveRx D2 beta-arrestin cells, luminescence, 90 min; 100% = 57 uM dopamine signal | potentiation, % (test concentration not listed) | 0.23% of 360,000 active; active = potentiation of 50% or more; inconclusive = 30% to 50%; inactive = 30% or less;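 further: compound concentration not given in the record; tested on top of an EC20 dose of dopamine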
Target sequence (P14416 whole entry, looked up): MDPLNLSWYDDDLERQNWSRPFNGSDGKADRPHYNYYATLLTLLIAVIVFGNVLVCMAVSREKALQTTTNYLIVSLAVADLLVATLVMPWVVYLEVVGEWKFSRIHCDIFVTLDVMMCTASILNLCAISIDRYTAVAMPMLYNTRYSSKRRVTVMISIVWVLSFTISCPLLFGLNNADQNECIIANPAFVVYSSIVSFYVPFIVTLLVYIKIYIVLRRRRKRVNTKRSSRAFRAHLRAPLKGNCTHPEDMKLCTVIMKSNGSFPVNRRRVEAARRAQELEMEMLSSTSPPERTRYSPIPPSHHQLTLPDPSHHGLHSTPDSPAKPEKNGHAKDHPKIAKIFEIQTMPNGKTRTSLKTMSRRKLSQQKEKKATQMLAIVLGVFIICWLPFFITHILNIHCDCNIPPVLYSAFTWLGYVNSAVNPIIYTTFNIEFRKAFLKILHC
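PathHunter beta-arrestin assay in DiscoveRx D2 cells. Compounds were added with an EC20 of dopamine (50 nM final) for 90 min at 37 deg C. Luminescence was read 1 h after detection reagent, with 57 uM dopamine as the EC100 control.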
gsp agonist – agonists of gsp mutant (McCune-Albright syndrome); AID 624287; gsp mutant cells, cAMP HTRF, 30 min; control for the full effect not named in the record; 0.13% of 340,000 active; Potency, µM (series often up to 76.9 µM), for inactives: at the top dose activation (cAMP increase), hits mostly activators; active = well fitted activation curve with a large enough effect; inconclusive = small, poorly fitted or top-dose-only effect, or another doubt; inactive = no such curve, though single readings can be large or run the other way; cell line not stated here;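 further: phosphodiesterase inhibitor Ro 20-1724 added with compounds to block cAMP breakdown; potency means the concentration at half of the fitted maximal effect; nearly all actives have a fitted effect of over 60% in size; about a fifth of the inactives were tested at one dose only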
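Cells in DMEM/10% FBS with G418 were pretreated with compounds in DMSO plus […] (300 uM stock) for 30 min at 37C. cAMP was measured by HTRF (cAMP-d2 plus anti-cAMP antibody-K) after 30 min at room temperature.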
Sfp PPTase inh – blocks B. subtilis Sfp PPTase activity. Q9F4F7. Biochemical Sfp PPTase activity, qHTS. Potency, µM, without a hit: max response, negative = inhibition, actives largely listed as inhibitors. 3.5% of 310,000 active. AID 1490; active means well fitted inhibition curve with a large enough effect; inconclusive means small, poorly fitted or top-dose-only effect, or another doubt; inactive means no such curve, though single readings can be large or run the other way;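 further: the enzyme is Sfp with the accession as filed and its product quenches rhodamine fluorescence; potency means the concentration at half of the fitted maximal effect; 0% = enzyme reaction without inhibitor and -100% = no enzyme wells; top concentration of the series not given in the record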
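With Hepes-Na pH 7.6 buffer containing 10 mM MgCl2, Sfp (15 nM) modified BHQ-2-YbbR (12.5 uM) using rhodamine-CoA (5 uM). Two reads 30 minutes apart at 525/598 nm yielded each well's rate.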
ClpP mod – qHTS Assay for Activators of ClpP. AID 651965, 2013. 1.9% of 340,000 active. Potency, µM (doses to about 57.5 µM), for the others: at the highest dose activity change, negative = active. purified B. subtilis ClpP, FRET peptide cleavage, 20 min; active = well fitted falling curve with a large enough effect; inconclusive = small, poorly fitted or top-dose-only effect; inactive = no such curve, though single readings can be large or run the other way; further: potency means the concentration at half of the fitted maximal effect; the source files actives as falling curves though it sought activators and does not explain the sign; nearly all actives have a fitted effect of over 65% in size; many hits overshoot -100%
Target sequence (P80244 whole entry, looked up): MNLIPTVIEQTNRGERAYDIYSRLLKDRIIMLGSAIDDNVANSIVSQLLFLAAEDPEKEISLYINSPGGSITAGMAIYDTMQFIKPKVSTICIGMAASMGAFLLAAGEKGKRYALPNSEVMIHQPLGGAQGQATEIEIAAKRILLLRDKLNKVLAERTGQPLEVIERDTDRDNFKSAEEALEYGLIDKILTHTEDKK
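Purified B. subtilis ClpP, 10 microg/mL final in Tris/HCl pH8 with KCl, BSA, glycerol and Tween-20, cleaved an Abz/nitrotyrosine-quenched decapeptide. Fluorescence (ex 320, em 430) was read at 0 and 20 min at room temperature. Delta was normalized to 5.8 microM ADEP and DMSO/no-enzyme controls.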
gsp antag – gsp mutant antagonism. gsp-mutant cells, cAMP HTRF, 30 min; control for the full effect not named in the record. Potency, µM (series often up to 76.9 µM), for the others: top-dose activity change, negative = inhibition, most hits filed as inhibitors. 0.4% of 340,000 active. AID 624288; active = falling curve of any shape with a large fitted effect; inconclusive = falling curve, mostly with a smaller effect; inactive = flat or rising curve; cell line not stated here;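 further: intracellular cAMP measured with PDE inhibitor Ro 20-1724 present during compound exposure; potency means the concentration at half of the fitted maximal effect; on the % scale 0 is the no-effect control and ±100 the full control effect; nearly all actives have a fitted effect of over 65% in size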
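Cells in G418 medium, seeded 16-24 h, 37C; buffer exchange to DPBS + 1 mM CaCl2, 0.5 mM MgCl2, 0.05% BSA; cpds in DMSO + […] (300 uM stock), 30 min 37C; HTRF cAMP detection.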
* hit, by the source's call; ? = inconclusive; / = not tested or not shown; & = joins results of further samples; [ ] = another dose, or the depositor's remark.

Order of values: TRPV1 PAM | Menin MLL FP FL | D2 PAM | gsp agonist | Sfp PPTase inh | ClpP mod | gsp antag
- CCc1cc(=O)oc2cc(C)cc(OCC(=O)NCCCn3ccnc3)c12
  -3 | -0.7 | -13 | 19% | 27% | 3.9% | 8%
- O=C(O)c1cccc(NS(=O)(=O)c2cc(S(=O)(=O)c3ccc(Cl)cc3)ccc2Cl)c1
  15 | / | -18 | 9% | 19% | -1.6% | 3%
- CS(=O)(=O)N(CCC#N)Cc1ccc(C=O)o1
  14 | 0.5 | -1 | 0% | 25% | / | 9%
- CC(C)(C)NCc1ccccc1OCc1cccs1
  -1 | -0.9 | -11 | -21% | 6% | 0.8% | 11%
- O=C(Cc1cccs1)Nc1nc(-c2cccnc2)cs1
  -4 | 9.3 | -6 | -2% | -6% | -1.2% | 2%
- CCOC(=O)c1c(NC(=O)CSc2nnc(-c3ccncc3)n2Cc2ccco2)sc(C(C)=O)c1C
  / | / | -33 | -14% | / | -0.3% | -16%
- CCCn1ncc(CN2CCC(CO)(CC3CCCCO3)CC2)c1C (stereo unspecified)
  -2 | -0.9 | -4 | 1%[15.4 µM] | -1% | / | 11%
- COc1cc(C(=O)Nc2ccc3c(c2)CCN3C(C)=O)cc(OC)c1OC
  4 | 0.6 | -8 | -2%[15.4 µM] | 1% | / | 26%
- CCc1nc(SCC(=O)NCCc2ccccc2)c2oc3ccccc3c2n1
  -6 | 4.3 | 1 | 9% | -8% | -2.4% | 8%
- Cc1noc(C)c1S(=O)(=O)Nc1ccc(C(=O)Nc2ccc(OC(F)(F)F)cc2)cc1
  -4 | 2.0 | -11 | 33% | 29% | -1.5% | -11%
- O=C(OCC(=O)N1CCCC1=O)C1CCN(S(=O)(=O)c2ccc(Cl)c(C(F)(F)F)c2)CC1
  -22 | / | -4 | -13% | / | 1.9% | 7%
- c1ccc(CCn2nnnc2C(c2cccnc2)N2CCN(c3ccccc3)CC2)cc1 (stereo unspecified)
  -18 | 0.6 | 6 | -38% | 11% | 0.8% | 0%
- c1ccc(SCCOCCN2CCc3ccccc3C2)cc1
  5 | 5.1 | -12 | 6%[15.4 µM] | -4% | / | 5%
- CCN(C(=O)COC(=O)c1cc(-c2ccc3cc(OC)ccc3c2)nc2ccccc12)C1CCS(=O)(=O)C1 (stereo unspecified)
  -13 | 4.9 | / | / | -3% | / | /
- Cc1cc(NC(=O)CSc2nnnn2-c2cc(Cl)ccc2C)no1
  11 | -0.1 | 1 | -1% | -22% | / | -2%

Next records:
Order of values: TRPV1 PAM | Menin MLL FP FL | D2 PAM | gsp agonist | Sfp PPTase inh | ClpP mod | gsp antag
- O=c1cc(C(F)(F)F)[nH]c(=O)n1C1CCCCC1
  22 | 0.0 | -9 | -10% | 5% | 0.2% | -9%
- COC(=O)C1=C(C(=O)OC)[C@@H]2N(Cc3ccccc3)c3ccccc3[C@@]23C[C@@H](C(=O)OC)N(C(=O)c2ccc(Br)cc2)C3=N1
  -12 | 0.9 | -11 | -23% | 10%&-2% | 2.0% | -2%
- Cc1[nH]nc2c1C(c1ccsc1C)C(C#N)=C(N)O2 (stereo unspecified)
  -4 | 1.4 | -8 | -22% | 13% | -0.5% | 3%
- Cn1cccc1C(=O)C(=O)Nc1ccc(Cl)cc1
  -6 | 4.4 | -19 | 6% | 5% | 1.3% | 8%
- Cc1ccc2c(c1)N(S(=O)(=O)c1ccc(CN3C(=O)c4cccnc4C3=O)cc1)CCO2
  -3 | / | 10 | ? | -10% | 0.8% | -1%
- O=C(N=C1SC2CS(=O)(=O)CC2N1c1ccc(Br)cc1Cl)C1CC1 (stereo unspecified)
  -8 | 0.5 | 1 | ? | 7% | -0.5% | -13%
- CC1CCCCC1NC(=O)CCNS(=O)(=O)c1cc(Br)cnc1N (stereo unspecified)
  0 | / | -7 | -38%[inhibitor] | 6% | -26% | 7%
- Cc1nc2ccc(F)cc2cc1C(=O)Nc1cccc(Cl)c1C
  -10 | 11 | -12 | -1% | -2% | 4.2% | 15%
- O=C(NC1CC1)C1CCN(C(=O)c2ccc(Cl)cc2)CC1
  ? | -3.0 | -1 | 16%[15.4 µM] | 4% | / | 5%
- O=C(O)c1ccccc1C(=O)OCCCCOC(=O)c1ccccc1C(=O)O
  2 | 1.6 | -12 | 16% | 9% | 1.5% | 2%
- COc1ccc(CN2C(=O)c3ccccc3C2C(=O)NC2CCCC2)c(OC)c1 (stereo unspecified)
  8 | -0.2 | -11 | -1% | -8% | -2.2% | -1%
- O=C(Cn1cnc2c(nnn2-c2ccccc2)c1=O)NCc1ccc(F)cc1
  4 | -1.0 | -3 | 21% | -16% | -0.7% | 0%
- O=C(c1ccc(OC2CCN(C/C=C/c3ccc(F)cc3)CC2)cc1)N1CCCC1
  -4 | -3.8 | -36 | 5% | -5% | -1.2% | 2%
- CCOC(=O)c1ccc(-c2ccc3c(=O)c4ccccc4n(C)c3c2)cc1F
  -7 | -2.5 | -47 | / | 15% | -6.3% | -12%
- Cc1cc(C(=O)OC(C)C(=O)NC2CCCCC2C)c(C)o1 (stereo unspecified)
  9 | / | -15 | 16%[15.4 µM] | / | -2.7% | 6%

Next part:
Order of values: TRPV1 PAM | Menin MLL FP FL | D2 PAM | gsp agonist | Sfp PPTase inh | ClpP mod | gsp antag
- Cc1ccc(/C=N/NC(=O)Cn2nc(C)c([N+](=O)[O-])c2C)o1
  8 | 0.1 | -7 | -30%[15.4 µM] | 45µM* | 1.2% | -15%
- NCCOc1ccccc1OCCN
  ? | 1.4 | -11 | -2%[15.4 µM] | 11% | -2.5% | -13%
- CC(=O)N(/N=C1\Sc2ccccc2C1=O)c1ccc(C)cc1C
  -3 | -1.1 | -16 | -9% | -2% | 0.5% | -23%
- CCc1ccc(OCc2nc(-c3ccccn3)no2)c(Br)c1
  10 | -0.2 | -6 | -45%[inhibitor] | ? | -1.9% | -20%
- C[C@H](NC(=O)c1[nH]cnc1C(=O)N[C@@H](C)CO)c1ccccc1
  / | / | 0 | -8% | / | -4.6% | /
- COC(=O)Cc1ccc(NC(=S)NCc2ccc(OC)cc2)cc1
  -8 | -7.1 | 0 | 20%[15.4 µM] | 16% | / | -1%
- Cc1ccc(CN2CC(C(=O)N3CCN(S(=O)(=O)c4ccc(C(C)C)cc4)CC3)CC2=O)cc1 (stereo unspecified)
  7 | / | 9 | ? | / | -5.5% | -2%
- CN(C)Cc1nc2ccccc2c(=O)n1Cc1nc(-c2cc3ccccc3o2)cs1
  3 | 1.2 | 11 | 12% | ? | -1.3% | ?
- CN(C)N1C(N)=C(C#N)C(c2ccc(F)cc2)C2=C1CC(C)(C)CC2=O (stereo unspecified)
  -11 | -0.7 | -9 | 10% | 19% | 0.5% | -13%
- O=C(CSc1ccccn1)c1ccc(F)cc1
  -12 | -0.9 | 6 | -19% | ? | 0.0% | 0%
- CCOC(=O)c1ccc2c(c1)NCc1cccc(OC)c1O2
  -15 | 8.2 | 2 | -25% | -23% | -13% | -18%
- COC(=O)CSc1nc2ccc(C)cc2cc1C#N
  -31 | 4.6 | -18 | 1% | -8% | -12% | -9%
- CC1=CC(C)(C)N(C(=O)c2ccccc2)c2ccccc21
  -3 | 2.2 | -5 | 3% | -24% | 1.5% | -19%
- O=C(CCS(=O)(=O)c1ccccc1)Nc1nc(-c2cccs2)cs1
  0 | 1.6 | -4 | 8% | -1% | 0.1% | -20%
- Cn1c(=O)c2c(ncn2CC(=O)Nc2ccc(N3CCOCC3)cc2)n(C)c1=O
  -2 | 1.5 | -2 | ? | 3% | 2.8% | 21%

Later entries:
Order of values: TRPV1 PAM | Menin MLL FP FL | D2 PAM | gsp agonist | Sfp PPTase inh | ClpP mod | gsp antag
- O=C(c1ccccc1[N+](=O)[O-])N1CCN(c2ccc(N3CCOCC3)nn2)CC1
  -4 | / | -13 | -7%[15.4 µM] | / | 1.7% | 2%
- CN1C[C@@H]2C(c3ccccc3)C3(c4ccccc4)CC2(C3)[C@H]1c1ccccc1 (stereo partly specified)
  -14 | 11&0.7 | -13 | / | -21%&-5% | -2.0% | -1%
- O=C(NCCc1ccc2c(c1)OCCO2)c1cccc(S(=O)(=O)N2CCCC2)c1
  -16 | / | 1 | -27% | / | 0.6% | -10%
- Cc1cc(=O)[nH]c(Nc2ccc(N(C)C)cc2)n1
  -9 | 5.9 | 3 | -42%[inhibitor] | 7% | 0.8% | ?
- COc1ccc(-c2sc3ccccc3c2/C=C/c2ccc(OC)c(OC)c2)cc1
  / | / | 2 | ? | / | 3.6% | 6%
- Cc1cccc(S(=O)(=O)Nc2cccc3c2C(=O)c2ccccc2-3)c1
  17 | ? | -6 | ? | -18% | -4.0% | 4%
- Cc1ccc(S(=O)(=O)NCCC(=O)Nc2cc(S(=O)(=O)N(C)C)ccc2C)cc1C
  2 | 0.0 | -9 | -69%[inhibitor] | -1% | / | -3%

Among those listed so far, these have an aryl methoxy group.
Order of values: TRPV1 PAM | Menin MLL FP FL | D2 PAM | gsp agonist | Sfp PPTase inh | ClpP mod | gsp antag
- COc1cc(C(=O)Nc2ccc3c(c2)CCN3C(C)=O)cc(OC)c1OC
  4 | 0.6 | -8 | -2%[15.4 µM] | 1% | / | 26%
- CCN(C(=O)COC(=O)c1cc(-c2ccc3cc(OC)ccc3c2)nc2ccccc12)C1CCS(=O)(=O)C1 (stereo unspecified)
  -13 | 4.9 | / | / | -3% | / | /
- COc1ccc(CN2C(=O)c3ccccc3C2C(=O)NC2CCCC2)c(OC)c1 (stereo unspecified)
  8 | -0.2 | -11 | -1% | -8% | -2.2% | -1%
- COC(=O)Cc1ccc(NC(=S)NCc2ccc(OC)cc2)cc1
  -8 | -7.1 | 0 | 20%[15.4 µM] | 16% | / | -1%
- CCOC(=O)c1ccc2c(c1)NCc1cccc(OC)c1O2
  -15 | 8.2 | 2 | -25% | -23% | -13% | -18%
- COc1ccc(-c2sc3ccccc3c2/C=C/c2ccc(OC)c(OC)c2)cc1
  / | / | 2 | ? | / | 3.6% | 6%

High-throughput results deposited in PubChem BioAssay by National Center for Advancing Translational Sciences (NCATS).
